NOD2 inhibition: NOD2 signaling inhibitors, cell-based, luminescence, uHTS, HEK293 (AID 1566); inhibition, % at 4 µM, or EC50 in µM where a hit was titrated; 290,000 tested, 0.63% active; HEK293 NOD2/NF-kB luciferase reporter, luminescence; higher % means a stronger effect; in the data active = inhibition above about 50%; note: many of its hits are not listed in these tables
GPR55 activation: selective activators of receptor GPR55 – imaging, U2OS cells, beta-arrestin-GFP redistribution, primary screen (AID 1961). U2OS GPR55 beta-arrestin-GFP redistribution imaging; higher % means a stronger effect. one-dose activation, % at 10 µM; EC50 in µM for titrated hits. 290,000 tested, 0.048% active;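 active = activation above 40% with more than 50 cells counted in the well; inconclusive = wells holding fewer than 50 cells, flagged as toxic or sparse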;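 note: U2OS osteosarcoma cells stably expressing GPR55 and beta-arrestin-GFP; plate controls were DMSO negative control for no effect and LPI positive control for full effect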
NOD1 inhibition: NOD1 signaling inhibitors, primary screen, cell-based, luminescence, uHTS (AID 1578). 290,000 tested, 1% active. one-dose inhibition, % at 4 µM; EC50 in µM for titrated hits. NOD1-driven NF-kB luciferase reporter cells, luminescence; higher % means a stronger effect; in the data active = inhibition mostly above about 36%, no sharp cut-off; inactive = mostly below about 34%;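 note: HEK-293T reporter cells stimulated with the NOD1 agonist gamma-tri-DAP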
GPR55 LPI antagonism: GPR55 antagonists blocking LPI-driven arrestin recruitment, primary screen, imaging, U2OS, beta-arrestin-GFP, LPI agonist (AID 2013). U2OS GPR55 beta-arrestin-GFP translocation imaging, LPI antagonism; higher % means a stronger effect. inhibition, % at 10 µM; hits with a dose series show IC50 in µM. 290,000 tested, 0.13% active;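 active = spots per cell inhibited over 60%, with over 100 cells counted and total cytoplasm intensity under 500,000; inconclusive = wells with under 100 cells, flagged as likely toxic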;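 note: U2OS cells stably carrying GPR55 and arrestin-GFP stimulated by 5 µM LPI near EC80; imaged beta-arrestin-GFP aggregate spots per cell after agonist stimulation; plate controls were LPI-stimulated DMSO wells for no effect and DMSO wells without LPI for full effect; some results filed as inactive read as strong as hits; confirmed hits need IC50 under 10 µM and bright autofluorescent wells are also inconclusive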
Rac1 GTP hydrolysis: MgcRacGAP GTPase-activating activity inhibitors, confirmation, biochemical, ADP Hunter fluorescence | inhibition, % at 30 µM; hits with a dose series show IC50 in µM | AID 624330 | MgcRacGAP-stimulated Rac1 GTP hydrolysis, ADP Hunter fluorescence; higher % means a stronger effect; GST-tagged Rac1 F28L mutant substrate | 340,000 tested, 0.6% active;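 active = first-screen hits whose inhibition reached a set limit at any dose in the follow-up dose series; inconclusive = inhibition above the set first-screen limit but never retested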;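 note: fluorescence reports GDP produced by GAP-driven GTP hydrolysis; strong numbers were not always called active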
An asterisk follows results filed as active; u = inconclusive; x = not tested or not shown; & = joins results of further samples.

Abbreviations – A = NOD2 inhibition; B = GPR55 activation; C = NOD1 inhibition; D = GPR55 LPI antagonism; E = Rac1 GTP hydrolysis
> CC(C)NC[C@@H](O)COc1cccc2ccccc12
  A: x; B: x; C: x; D: x; E: 3%
> NS(=O)(=O)c1cc(C(=O)O)c(NCc2ccco2)cc1Cl
  A: x; B: x; C: x; D: x; E: 3%
> Oc1c(Cl)cc(Cl)cc1Sc1cc(Cl)cc(Cl)c1O
  A: 5%; B: -0.1%; C: -36%; D: -10%; E: x
> OCCOCCN1CCN(C2=Nc3ccccc3Sc3ccccc32)CC1
  A: -11%&-7%; B: 0.3%&-0.5%; C: -20%&-3%; D: -4%&-8%; E: -5%&0%
> Cc1cccc(NC(=O)CN2C(=O)S/C(=C\c3cccn3-c3cccc(C(=O)O)c3)C2=O)c1
  A: 3%; B: 0.2%; C: -22%; D: -6%; E: 9%
> Cc1ccc(NC(=O)c2sccc2SCc2cccc(C(F)(F)F)c2)cc1
  A: -5%; B: -0.1%; C: 37%; D: 15%; E: 14%
> Cc1cccc(CCN2CCC(C(=O)c3ccc(NS(C)(=O)=O)cc3)CC2)n1
  A: 11%; B: -0.5%; C: -1%; D: 18%; E: x
> COCc1cc(C)nc(SCC(=O)c2ccc(O)c(O)c2)c1C#N
  A: -16%; B: 0.0%; C: -25%; D: 5%; E: u
> Oc1c(Cl)cc(Cl)c(Cl)c1Cc1c(O)c(Cl)cc(Cl)c1Cl
  A: -9%; B: -0.1%; C: 86%*; D: 11%; E: 6%

In the list so far, two have a COOH group:
Abbreviations – A = NOD2 inhibition; B = GPR55 activation; C = NOD1 inhibition; D = GPR55 LPI antagonism; E = Rac1 GTP hydrolysis
> NS(=O)(=O)c1cc(C(=O)O)c(NCc2ccco2)cc1Cl
  A: x; B: x; C: x; D: x; E: 3%
> Cc1cccc(NC(=O)CN2C(=O)S/C(=C\c3cccn3-c3cccc(C(=O)O)c3)C2=O)c1
  A: 3%; B: 0.2%; C: -22%; D: -6%; E: 9%

A section from further up:
Abbreviations – A = NOD2 inhibition; B = GPR55 activation; C = NOD1 inhibition; D = GPR55 LPI antagonism; E = Rac1 GTP hydrolysis
> CC(C)NC[C@@H](O)COc1cccc2ccccc12
  A: x; B: x; C: x; D: x; E: 3%
> NS(=O)(=O)c1cc(C(=O)O)c(NCc2ccco2)cc1Cl
  A: x; B: x; C: x; D: x; E: 3%
> Oc1c(Cl)cc(Cl)cc1Sc1cc(Cl)cc(Cl)c1O
  A: 5%; B: -0.1%; C: -36%; D: -10%; E: x
> OCCOCCN1CCN(C2=Nc3ccccc3Sc3ccccc32)CC1
  A: -11%&-7%; B: 0.3%&-0.5%; C: -20%&-3%; D: -4%&-8%; E: -5%&0%

From PubChem BioAssay

Only part of the results is shown. The share of hits here may be higher or lower than overall.
